# Sa ugtP lethal – growth inhibition of S. aureus ugtP deletion strain; S. aureus RN4220 ugtP deletion, OD600 growth, 16 h; some inactives read as strong as hits; AID 1259309; actives 0.54% (n = 330,000); growth inhibition, % (concentration not given with the values);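 active = z-score under -3 and OD600 up to 0.15 on both plates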;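 note: plate controls were untreated wells for no effect and antibiotic for full effect; wells of about 80 µL received 100 nL stock; the first replicate is given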
# Mtb hypoxia rep – reduces hypoxia-regulated biosensor signal in M. tuberculosis; actives 0.1% (n = 300,000); fluorescence inhibition, % (no concentration beside the values); M. tuberculosis hypoxia-regulated fluorescent reporter, fluorescence;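 active = 35 to 45% if threefold the growth effect, above 45% if 1.5-fold the growth effect; inactive = the rest, general growth blockers included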;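 note: wells of about 50 µL received 100 nL stock; 0% = vehicle wells and 100% = reference inhibitor wells; whole bacteria with a GFP reporter of the hypoxia response; strong numbers were not always called active; many hits fall short of the cut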
# BJeLR viability – BJeLR cell viability loss | BJeLR (HRASV12) viability, CellTiter-Glo ATP luminescence, 48 h; reference of the scale not given here | inhibition, % (no concentration beside the values) | actives 0.17% (n = 300,000) | AID 1554;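 active = replicate mean above 50%; inconclusive = above 50% but judged a plate artefact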;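 note: 50 nL library stock added to about 25 µL; numbers are from one replicate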
# PrP UTR inh – inhibition of PrP 5' UTR reporter expression | cell-based PrP 5' UTR mRNA reporter, plate reader | inhibition, % (no concentration beside the values) | actives 0.35% (n = 340,000);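 active = every replicate at 50% or more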;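 note: 0 = median of the neutral control wells; tested in H4 reporter cells; numbers are from one replicate; inactives centre near -14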
# Bead autofluor – counter-screen for toxin protease inhibitors: compound fluorescence; compound autofluorescence counterscreen, microsphere flow cytometry; hits give high values; fluorescence intensity (concentration not given with the values); actives 3.1% (n = 360,000);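 active = at least 3 SD above the mean of all compounds, about 16000 in these data; inconclusive = too few beads counted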;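 note: 100 nL of 1 mM stock went into each well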
# Sa RN4220 lethal – S. aureus RN4220 growth inhibition | OD600, 16 h | inhibition, % (no concentration beside the values) | AID 1259311 | actives 0.33% (n = 330,000);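 active = z-score of -3 or lower and OD600 up to 0.18 on both plates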;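 note: plate controls were untreated cells for no effect and reference antibiotic for full effect; stock transfer was 100 nL into about 80 µL; one replicate is shown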
# Mtb hypoxia rep growth – further read-out of Mtb hypoxia rep, marked with its call; growth inhibition, %; measured here: M. tuberculosis growth (absorbance);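 0% = vehicle and 100% = reference antibiotic; read after six days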
# * marks the source's active call; other numbers are inactive results; u = inconclusive; x = not tested or not shown; & = joins results of further samples.
SMILES,Sa ugtP lethal,Mtb hypoxia rep,Mtb hypoxia rep growth,BJeLR viability,PrP UTR inh,Bead autofluor,Sa RN4220 lethal
O=C(Nc1ccccc1)N1CCCC(c2nc(-c3ccc(F)cc3)no2)C1 (stereo not given),1,x,x,0,-40,4275,-0.6
COc1ccc(/C=C(\NC(=O)c2ccc(C)cc2)C(=O)NCCCn2ccnc2)cc1,-2,10,10,2,-32,5417,3.4
COc1cccc(C2C(C(N)=O)=C(C)Nc3nc(-c4cccc(Cl)c4)nn32)c1 (stereo not given),-2,4,4,-3,-33,10601,2.9
Cc1ccc(NC(C)c2cc(Cl)ccc2O)cc1 (stereo not given),4,3,5,1,-17,21916*,5.2
COc1ccc2nc(/C=N/NC(=O)CCCCCNC(=O)OC(C)(C)C)ccc2c1,x,x,x,5,-72,4624,x
COc1ccc(CNC(=O)c2c([S-])n(-c3ccc(C)cc3)c3cccc[n+]23)cc1,2,7,8,3,-24,3427,5.2
CC1COC(c2cccn2Cc2ccccc2Cl)=N1 (stereo not given),12,x,x,-3,-29,2346,7.1
CCCCc1nc2cc(C(=O)N3CCC[C@H]3CO)ccc2o1,2,3,1,9,-9,5692,1.3
COCCCn1c(C2CCCCC2)nc2oc3cc(OC)ccc3c(=O)c2c1=O,2,-1,0,-1,-23,10243,5.0
Cn1cnnc1SCC(=O)Nc1cc(C(F)(F)F)ccc1N1CCOCC1,8,12,7,4,-14,4099,4.3
CCO[C@@H]1OC(C(=O)N2CCCCCCC2)=C[C@H](c2cn(C(C)=O)c3ccccc23)[C@H]1CCCO,x,x,x,8,-6,3024,x
O=C(NCc1cccs1)C(=O)NCC1OCCCN1S(=O)(=O)c1ccccc1 (stereo not given),1,6,4,-11,-14,3452,5.9
Cn1cc(C(=O)N2CCN(c3cccc(Cl)c3)CC2)c(=O)c2cc(S(=O)(=O)N3CCOCC3)ccc21,2,-4,-5,1,4,7278,2.0
O=C(C1=C(O)C(=O)N(CCN2CCOCC2)C1c1ccc(F)cc1)c1cc2ccccc2o1 (stereo not given),-1,-5,-1,-1,-14,5302,2.7
COc1ccc(OCC(=O)OC2CCN(C)CC2)cc1,-1,10,11,3,-7,2960,1.3
O=C(O)CSc1nc2c(c(C(F)(F)F)n1)CCc1ccccc1-2,6,8,0,4,4,4684,7.4
Cc1ccc(C(C)NC(=O)c2ccco2)cc1C (stereo not given),-8,x,x,9,-34,21456*,-2.6
CC1=NN(C(N)=S)C(=O)C1N=Nc1cccc(C(=O)O)c1 (stereo not given),1,9,4,4,2,x,2.7
O=C(Nc1cccc(C(F)(F)F)c1)C1CCN(S(=O)(=O)c2ccc(N3CCCC3=O)cc2)CC1,14,5,1,12,1,4380,-3.5
C/C(=N\NC(N)=S)c1ccccc1,x,x,x,5,-22,3618,x
CCc1nnc(SCc2ccc(C(=O)OC)o2)n1N,19,1,0,8,4,2440,24
Cc1cccc(NS(=O)(=O)c2cccc(C(=O)N3CCCCCC3)c2)c1,11,8,7,-13,-6,6135,8.7
CCCCCCSc1cccc(-c2nc3ccc(Cl)cn3c2NCc2ccccc2)c1,x,x,x,-8,-2,3010&4276,x
Cc1nc2ccc(NC(=O)c3cccc(C(F)(F)F)c3)cc2o1,-5,1,2,0,-37,22143*,6.4
CC(C)C(=O)NC(c1ccccc1Cl)c1c(O)ccc2ccccc12 (stereo not given),-3,-7,9,1,-11,7911,-0.9
CCOc1cc(C(=O)N(C)CC(=O)Nc2cccc3ccccc23)ccc1OC,5,14,6,x,-3,8895,3.7
COc1ccc(NS(=O)(=O)c2cccc(C(=O)NNC(=O)c3ccc(Br)o3)c2)cc1,6,3,4,5,-19,6001,-0.4
COc1ccc(-c2cc(=O)c3cc(F)ccc3[nH]2)cc1,x,x,x,1,-3,3874,x
Cc1ccc(Cn2ccc(NC(=O)c3noc4c3CCCC4)n2)cc1,3,3,7,11,-26,11060,-2.2
O=C(Nc1ccc(NC(=O)C2CCCCC2)cn1)c1ccco1,10,x,x,-2,15,3612,0.2
COc1cc(NC(=O)COC(=O)/C=C/c2ccc(OC)c(OC)c2)cc(OC)c1,2,3,9,-11,4,4020,5.2
NS(=O)(=O)c1ccc(CCNC(=O)C2CCN(S(=O)(=O)c3c(Cl)cccc3Cl)CC2)cc1,7,5,4,-3,2,4092,2.0
NC(=O)c1nsc(C(=O)N(CCc2ccccc2)C(C(=O)NC2CCCC2)c2ccco2)c1N (stereo not given),0,14,11,4,-18,u,5.4
CCOC(=O)/C(C#N)=C/c1c[nH]c2ccccc12,1,4,2,-8,-20,2089,7.5
CCN(CC(=O)Nc1ccccc1C(F)(F)F)C(=O)c1ccc(N2C(=O)CCC2=O)cc1,12,17,-9,-12,-1,4201,0.4
Cc1ccc(-n2c(O)c(C=Nc3ccccc3N)c(=O)[nH]c2=O)cc1C,-1,x,x,-3,-12,2800,-0.5
Nc1c(C(=O)NN=Cc2cccnc2)oc2nc(-c3ccccc3)cc(-c3ccco3)c12,-1,4,12,x,x,x,4.5
O=C1NC(=S)N/C1=C\C=C\c1ccccc1,0,-6,5,5,x,6547,5.8
CC(C)C(C)NC(=O)CN1C(=O)NC2(CCc3ccccc32)C1=O (stereo not given),8,4,-6,0,14,3815,5.8
O=C(NN=Cc1ccc(Cl)cc1Cl)c1ccncc1,6,7,-3,x,x,x,0.0
N#Cc1c2c(c(NCCCN3CCOCC3)n3c1nc1ccccc13)CCC2,2,1,8,2,-23,3141,0.1
Cc1ccc2c(c1)N(CCC(=O)NCc1ccccn1)C(=O)CO2,4,1,-8,-6,-23,9602,-0.2
CCN1CC2C3C(=O)N(Cc4ccccc4)C(=O)C3[C@](Cc3ccccc3)(C1=O)N2C(=O)c1ccc(C(F)(F)F)cc1 (stereo not given in full),-12,-4,1,x,x,x,8.4
CC(=O)Nc1nc2c(ncn2COCCOC(C)=O)c(=O)[nH]1,-1,x,x,3,x,x,-0.5
CN1CC(=O)N(CC(=O)Nc2ccc(N3CCOCC3)cc2)C1=O,1,6,5,x,-26,4840,1.2
Cc1ccc(S(=O)(=O)N2CCN(C(=O)Cn3nc(C(=O)O)c4ccccc4c3=O)CC2)cc1,14,-11,-8,3,x,x,3.3
COc1ccc(NCN2C(=O)CCC2=O)cc1,6,8,6,-6,-118,2650,5.1
COc1cc2nc(CN3CCN(C(C)=O)CC3)[nH]c(=O)c2cc1OC,3,11,6,0,-21,4585,7.3
CC(C)(C)c1ccc(C(=O)Nc2c3c(nn2C(C)(C)C)CS(=O)(=O)C3)cc1,10,-8,-11,-4,-13,u,-1.6
CN(CC(=O)Nc1cccc(F)c1)C(=O)CN1c2cccc3cccc(c23)S1(=O)=O,-2,10,6,x,-22,3322,5.6
CCOC(=O)c1ccccc1OCc1cc(C=Nn2cncn2)ccc1OC,-1,4,7,x,x,x,3.3
CCO[C@H]1OC(C(=O)N2CCN(C)CC2)=C[C@@H](C2CC2)[C@@H]1CCCO,x,x,x,-2,-15,2915,x
CC1(C)CC(=O)C=C(NCc2ccco2)C1,-6,x,x,11,-9,2255,-0.5
CCC(=Nn1nnnc1Nc1ccccc1)c1ccccc1,2,6,1,x,x,x,3.6
Cc1csc2c(=O)sc(NC(=O)c3ccco3)nc12,8,6,3,4,-14,3064,6.5
COc1ccccc1NC(=O)Nc1nnc(Cc2ccccc2F)s1,1,14,-8,-1,-28,3889,3.0
CCc1nc(NCCO)c(C#N)c2c1CSC(C)(C)C2,-3,2,12,10,-18,4433,2.4
COc1ccc(/C=C/C(=O)NCC2COc3ccccc3O2)c(OC)c1 (stereo not given),99*,0,12,-17,-41,4583,-4.8
COCCN(C(=O)CSc1ncn[nH]1)c1c(N)n(Cc2ccccc2)c(=O)[nH]c1=O,-1,3,2,-7,-12,u,6.6
Cc1cc(C)cc(N(CC(=O)NC2CCCCCC2)S(=O)(=O)c2c(C)[nH]c(=O)[nH]c2=O)c1,-7,1,5,-8,-4,3380,2.4

# Following part
SMILES,Sa ugtP lethal,Mtb hypoxia rep,Mtb hypoxia rep growth,BJeLR viability,PrP UTR inh,Bead autofluor,Sa RN4220 lethal
O=C(CSC1=NCCS1)Nc1ccc(F)cc1,6,-10,-19,2,-14,4167,0.5
OCC[C@@H]1C[C@H](O)[C@@H](O)[C@]2(Cc3ccccc3CCO2)O1,x,x,x,0,-4,3975,x
C=CCOc1c(Br)cc(CNn2c(C)n[nH]c2=S)cc1OC,1,8,1,8,-17,x,6.5
Cc1ccccc1OCC(=O)OCC(=O)c1ccc(OC(=O)c2ccccc2)cc1,3,0,5,-6,7,11035,3.9
CC1CCN(C(=O)C(NS(=O)(=O)c2cccc3nsnc23)C(C)C)CC1 (stereo not given),7,7,-11,-4,11,4651,5.8
COc1ccc(Cc2noc(COc3ccc(Cl)cc3)n2)cc1,15,7,10,2,-23,12760,0.0
COc1cccc(-c2nc(C#N)c(N3CCN(C(=O)c4ccco4)CC3)o2)c1,-7,12,3,3,-4,4559,-6.3
CN(C)C(=O)CCc1ccc2c3c([nH]c2c1)[C@]1(CCc2ccccc2)[C@@H](C(=O)N2CCCCC2)C[C@H](CC(=O)NCCc2ccccn2)C(=O)N1CC3,3,-9,2,x,2,3644,0.5

# Reformatted tab-delimited: part of the list above
SMILES	Sa ugtP lethal	Mtb hypoxia rep	Mtb hypoxia rep growth	BJeLR viability	PrP UTR inh	Bead autofluor	Sa RN4220 lethal
CCOC(=O)c1ccccc1OCc1cc(C=Nn2cncn2)ccc1OC	-1	4	7	x	x	x	3.3
CCO[C@H]1OC(C(=O)N2CCN(C)CC2)=C[C@@H](C2CC2)[C@@H]1CCCO	x	x	x	-2	-15	2915	x
CC1(C)CC(=O)C=C(NCc2ccco2)C1	-6	x	x	11	-9	2255	-0.5
CCC(=Nn1nnnc1Nc1ccccc1)c1ccccc1	2	6	1	x	x	x	3.6
Cc1csc2c(=O)sc(NC(=O)c3ccco3)nc12	8	6	3	4	-14	3064	6.5
COc1ccccc1NC(=O)Nc1nnc(Cc2ccccc2F)s1	1	14	-8	-1	-28	3889	3.0
CCc1nc(NCCO)c(C#N)c2c1CSC(C)(C)C2	-3	2	12	10	-18	4433	2.4
COc1ccc(/C=C/C(=O)NCC2COc3ccccc3O2)c(OC)c1 (stereo not given)	99*	0	12	-17	-41	4583	-4.8
COCCN(C(=O)CSc1ncn[nH]1)c1c(N)n(Cc2ccccc2)c(=O)[nH]c1=O	-1	3	2	-7	-12	u	6.6
Cc1cc(C)cc(N(CC(=O)NC2CCCCCC2)S(=O)(=O)c2c(C)[nH]c(=O)[nH]c2=O)c1	-7	1	5	-8	-4	3380	2.4
O=C(CSC1=NCCS1)Nc1ccc(F)cc1	6	-10	-19	2	-14	4167	0.5
OCC[C@@H]1C[C@H](O)[C@@H](O)[C@]2(Cc3ccccc3CCO2)O1	x	x	x	0	-4	3975	x
C=CCOc1c(Br)cc(CNn2c(C)n[nH]c2=S)cc1OC	1	8	1	8	-17	x	6.5
Cc1ccccc1OCC(=O)OCC(=O)c1ccc(OC(=O)c2ccccc2)cc1	3	0	5	-6	7	11035	3.9
CC1CCN(C(=O)C(NS(=O)(=O)c2cccc3nsnc23)C(C)C)CC1 (stereo not given)	7	7	-11	-4	11	4651	5.8
COc1ccc(Cc2noc(COc3ccc(Cl)cc3)n2)cc1	15	7	10	2	-23	12760	0.0
COc1cccc(-c2nc(C#N)c(N3CCN(C(=O)c4ccco4)CC3)o2)c1	-7	12	3	3	-4	4559	-6.3

# Screens as filed in PubChem BioAssay.
